From PubChem
GALR2 ag: GALR2 (human) receptor agonism; O43603; GALR2-expressing cells, agonist activation read-out; activation, %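 (tested at 5 µM)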; 140,000 compounds, 0.48% hits; AID 803;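 active = above mean plus 3 SD of all compounds, about 5% in these data, not always enough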;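 also: 0% = vehicle buffer wells and 100% = reference agonist at full effect; tested in CHO reporter cells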
Target sequence (O43603 whole entry, looked up): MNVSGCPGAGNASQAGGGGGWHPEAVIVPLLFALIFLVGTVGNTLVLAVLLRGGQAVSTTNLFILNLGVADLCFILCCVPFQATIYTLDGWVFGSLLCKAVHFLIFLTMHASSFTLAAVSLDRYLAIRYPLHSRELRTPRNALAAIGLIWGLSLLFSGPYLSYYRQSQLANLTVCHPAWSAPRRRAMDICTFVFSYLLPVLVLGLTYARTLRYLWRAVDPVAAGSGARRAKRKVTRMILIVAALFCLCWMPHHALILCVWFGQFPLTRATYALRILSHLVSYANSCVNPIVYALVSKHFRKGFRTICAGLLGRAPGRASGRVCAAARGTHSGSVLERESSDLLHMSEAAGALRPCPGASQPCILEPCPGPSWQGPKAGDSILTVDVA
PKD1 inh: blocks activity of human protein kinase D1 | inhibition, %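 (about 10 µM by stock and volumes)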 | PKD1 kinase fluorescence polarization assay | 200,000 compounds, 0.056% hits | Q15139;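 active = inhibition of 50% or more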;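 also: controls were vehicle for no effect and a reference inhibitor for full effect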
RGS16-Gao: RGS16-Galphao interaction regulator (human); binding response (% of control), % at 10 µM; bead-based flow cytometry RGS16-Galphao binding, fluorescence; actives lie on both sides; O15492+P09471; AID 1441; 220,000 compounds, 0.38% hits;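 active = below 25% or above 175%, edge rows of some plates excepted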;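 also: Galphao activated by GDP with aluminum fluoride before binding; 100% = wells without compound and 0% = beads without RGS; some results beyond the cut were filed as inactive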
Target sequence (O15492 whole entry, looked up): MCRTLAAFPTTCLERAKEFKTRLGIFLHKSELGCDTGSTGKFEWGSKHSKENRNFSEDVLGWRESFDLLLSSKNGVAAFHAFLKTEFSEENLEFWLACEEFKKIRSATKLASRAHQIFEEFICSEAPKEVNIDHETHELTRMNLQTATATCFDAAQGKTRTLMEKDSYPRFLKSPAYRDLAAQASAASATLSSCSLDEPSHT
Target sequence (P09471 whole entry, looked up): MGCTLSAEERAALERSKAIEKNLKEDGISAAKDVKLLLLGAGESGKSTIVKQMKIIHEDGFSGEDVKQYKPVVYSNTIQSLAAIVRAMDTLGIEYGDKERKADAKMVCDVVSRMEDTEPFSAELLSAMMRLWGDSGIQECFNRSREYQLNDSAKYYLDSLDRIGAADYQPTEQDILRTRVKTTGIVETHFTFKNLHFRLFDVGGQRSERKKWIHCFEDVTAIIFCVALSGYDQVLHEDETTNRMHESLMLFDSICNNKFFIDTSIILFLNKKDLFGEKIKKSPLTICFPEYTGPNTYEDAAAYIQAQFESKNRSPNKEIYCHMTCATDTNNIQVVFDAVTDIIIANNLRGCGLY
INS promoter inh: TRM-6 insulin promoter activity inhibition. TRM-6 cells (human fetal islet line), insulin promoter-eGFP reporter, imaging; reporter expression induced with tamoxifen. inhibition, % at 2 µM. 130,000 compounds, 0.9% hits. AID 1273;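 active = inhibition above the mean plus 3 SD, with well images judged a real hit on visual review, cut at about 60% in these data, passing the limit was not always enough; inconclusive = inhibition over the cutoff but images rejected on review; inactive = inhibition not above the cutoff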
HSV replic up: HSV replication enhancement | HSV replication augmentation in cells, fold increase | maximum fold increase | 220,000 compounds, 0.005% hits | AID 1956;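 active = peak rise of 1.5-fold or more in the series; inconclusive = self-fluorescent or not available for retest; tested in PC3 cells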;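 also: first round at 10 µM; read as green reporter fluorescence; hits show the peak of a series up to 25 µM; 1 = signal of infected wells without compound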
INS promoter inh cell count: further read-out of INS promoter inh, marked with its call; normalized cell count, %; measured here: cell count, toxicity; reference of the scale not given here;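 cells exposed to compound for 48 h; stained nuclei by imaging scaled within each plate; lower means fewer cells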
HSV replic up primary fold: further read-out of HSV replic up, marked with its call; fold increase; compound at 10 µM; measured here: primary screen fold increase 10 uM; tested in PC3 cells;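 GFP signal in the first replicate; 1 = infected wells without compound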
The depositor's hits bear a star; i = inactive; ? = inconclusive; . = no result given.

entry	structure	GALR2 ag	PKD1 inh	RGS16-Gao	INS promoter inh	INS promoter inh cell count	HSV replic up	HSV replic up primary fold
1	CC(C)COCC1CC2(CC(C)C(=O)CC2=O)C(=O)O1 (configuration not stated)	-2.4	-8	94	3	81	i	0.89
2	CCN(CC)CC(O)COc1ccc2c(c1)c(C(C)=O)c(C)n2-c1ccccc1 (configuration not stated)	0.6	-4	98	19	120	i	0.99
3	CC(C)(C)OC(=O)NCC(=O)Oc1cc2oc(=O)cc(-c3ccccc3)c2cc1Cl	-1.8	15	106	-11	100	i	1
4	COc1ccc(NC2=C(C(C)=O)C(c3ccc4c(c3)OCO4)C(C(C)=O)C(C)(O)C2)cc1 (configuration not stated)	-2.4	-6	97	.	.	i	0.98
5	COc1cc(NCCCCCCCN)c2ncccc2c1	-2.1	5	55	14	113	i	0.53
6	O=C(O)CCC(=O)NNC(=O)COc1ccc(Cl)cc1Cl	.	4	94	.	.	i	0.88
7	O=C(CNC(=O)c1ccc(-c2ccccc2)cc1)OCc1c(Cl)cccc1Cl	-1.7	-16	102	-82	66	i	0.94
8	COc1cccc(-n2c(SCC(=O)Nc3nc4ccccc4s3)nc3ccccc3c2=O)c1	.	.	90	.	.	i	0.95
9	O=C(C1CCN(S(=O)(=O)c2ccc(F)cc2)CC1)N1CCOCC1	-4.5	0	100	.	.	i	0.85
10	OCC1(CCOc2ccccc2)CCN(Cc2cccn2-c2ncccn2)CC1	.	2	106	.	.	i	1.1
11	CC(=O)c1c(C)[nH]c(C(=O)NC2=NCCS2)c1C	-1.1	9	99	-11	86	i	0.99
12	C/C(=N\NC(=O)c1ccc(NS(=O)(=O)c2cccs2)cc1)c1ccc(O)cc1O	.	.	87	.	.	i	0.96
13	COc1ccc(-c2c(C(F)(F)F)oc3c(CN4CCN(C)CC4)c(O)ccc3c2=O)cc1	-0.8	-2	113	-50	114	i	0.94
14	CCOc1ccc(N(C(C)C(=O)NCc2ccco2)S(C)(=O)=O)cc1 (configuration not stated)	-1.6	1	101	17	99	i	1
15	Cc1ccc(/C=C(\C#N)C(=O)Nc2ccccn2)o1	.	-2	101	.	.	i	0.96
16	CC(C)Cc1nc2n[nH]c(N)c2c2c1CCC2	-2.5	2	100	.	.	i	0.94
17	COc1cccc(/C=C/C(=O)Nc2ccc3[nH]c(=O)[nH]c3c2)c1	.	5	97	.	.	i	1
18	O=C(NCCN1CCOCC1)c1cc(Sc2ccc(F)cc2F)nc2ccccc12	.	-10	98	-83	88	i	1
19	O=C(O)CN(c1ccc2c(c1)OCCO2)S(=O)(=O)c1ccccc1	-1.5	-5	103	-18	59	i	1.1
20	Cn1c(SCC(=O)N2CCN(c3ccccc3)CC2)nnc1-c1ccco1	-1.0	-11	101	-3	116	i	1.1
21	CN(CCCNS(=O)(=O)c1cccc2cccnc12)Cc1ccccc1	-0.8	-12	102	.	.	i	1.1
22	Cc1[nH]c(=O)[nH]c(=O)c1S(=O)(=O)N1CCCC(C(=O)N2CCN(c3ccccc3Cl)CC2)C1 (configuration not stated)	-1.3	-7	85	4	133	i	1.1
23	CC(NC(=O)CN(C)Cc1cccs1)c1ccccc1 (configuration not stated)	.	-2	93	.	.	i	1.1
24	CN(Cc1ccccc1)c1nc2c(c(=O)n(C)c(=O)n2C)n1CCCc1ccccc1	-0.2	-5	102	55	103	i	0.86
25	COCC(=O)Nc1nnc(CCc2ccccc2)s1	0.1	3	102	-36	107	i	0.96
26	Cc1cc(Cl)ccc1OC(C)C(=O)Nc1ccc(S(=O)(=O)Nc2cnc3ccccc3n2)cc1 (configuration not stated)	-1.1	-8	102	-3	73	i	0.88
27	O=C(COC(=O)c1cccs1)Nc1cccc(S(=O)(=O)N2CCOCC2)c1	-0.7	4	106	-18	142	i	0.96
28	CC1CCN(C(=O)C(Cc2ccccc2)n2cccc2)CC1 (configuration not stated)	-1.6	-3	107	-43	125	i	1.1
29	CN1CCN(C(=S)Nc2cccc(C(F)(F)F)c2)CC1	1.3	2	101	0	146	i	1
30	CCOc1ccc(S(=O)(=O)N(CC(N)=O)c2ccc(C)cc2)cc1	-0.3	-10	107	-69	147	i	0.9

Following part
entry	structure	GALR2 ag	PKD1 inh	RGS16-Gao	INS promoter inh	INS promoter inh cell count	HSV replic up	HSV replic up primary fold
31	CCOC(=O)CNC(=O)Cn1cnc2c(nnn2-c2cccc(Cl)c2)c1=O	-2.5	-14	91	38	74	i	0.88
32	Cc1nc2sccn2c(=O)c1CCN1CCC(=C(c2ccccc2)c2ccc(F)cc2)CC1	-0.1	3	104	-41	103	i	0.76
33	O=C(O)c1cc2n(n1)C(C(F)(F)F)CC(C1CC1)N2 (configuration not stated)	.	.	103	.	.	i	1
34	COC(=O)c1ccc[n+](CC(=O)Nc2ccc(OC(F)F)cc2)c1	.	-3	96	-22	89	i	0.92
35	CC(=O)Nc1ccc(-n2c(=O)c3ccccc3c3ccccc3c2=O)cc1	.	-3	68	.	.	i	0.97
36	CC1CCN(c2c(NCC3CCC(C(=O)NCCCc4ccccc4)CC3)c(=O)c2=O)CC1 (configuration not stated)	.	.	105	.	.	i	1.1
37	O=C(COC(=O)c1cccs1)Nc1ccc(S(=O)(=O)N2CCOCC2)cc1	0.1	4	102	3	140	i	0.93
38	C/C(=N\OC(=O)Nc1ccc(Cl)cc1)c1ncc(C(F)(F)F)cc1N1CCOCC1	-1.9	-9	69	34	130	i	0.86
39	Cc1nn(CC(=O)NCc2ccccc2)c(=O)c2ccccc12	-2.8	-7	100	.	.	i	0.96
40	CCOc1ccc(NC(=O)CSc2nnc(C)n2CC2CCCO2)cc1 (configuration not stated)	-1.1	-1	99	-60	101	i	0.9
41	Cc1cc(C)cc(OCC(=O)O/N=C(\N)Cc2ccc([N+](=O)[O-])cc2)c1	.	.	97	.	.	i	1.2
42	O=C(O)/C=C/C(=O)Nc1cccc(C(F)(F)F)c1	0.1	0	106	.	.	i	1.1
43	CCCC[n+]1ccn(C2=C([O-])c3ccccc3C(=O)/C2=N\S(=O)(=O)c2ccc(Cl)cc2)c1	.	.	103	.	.	i	0.57
44	Cc1nn(-c2ccccc2)c(C)c1NC(=O)COc1ccc(F)cc1Cl	-1.2	-19	101	-8	69	i	1.2
45	CN1/C(=C/C2CC(=O)N(c3ccc([N+](=O)[O-])cc3)C2=O)C(C)(C)c2ccccc21 (configuration not stated)	-1.5	-3	93	.	.	i	1
46	COCCNC(=O)CCCn1c(=O)c2cc(OC)c(OC)cc2n(CC(=O)c2ccccc2)c1=O	.	-8	101	-73	140	i	0.99
47	CCOc1ncccc1C(=O)OCC(=O)Nc1ccc(S(=O)(=O)N2CCOCC2)cc1	0.1	-12	102	.	.	i	0.94
48	Cc1ccc(NC(=O)C2Cc3ccccc3C(=O)O2)cc1 (configuration not stated)	.	-6	74	38	97	.	.
49	O=C(O)c1ccc(N/N=C/c2ccc(F)c(F)c2)cc1	0.2	0	106	.	.	i	1.1
50	C/C(N)=C(/C#N)C(=O)COC(=O)c1ccncc1	-0.2	-5	100	18	101	i	0.96
51	COc1ccc(N2CCN(c3oc(Cc4ccccc4)nc3C#N)CC2)cc1	-0.5	-8	111	-8	94	i	0.87
52	COc1cccc(-n2cc(CNCc3cn(C)nc3-c3ccccc3F)cn2)c1	.	-6	109	.	.	i	0.79
53	CNC(=S)N(Cc1ccc(OC)cc1)Cc1cc2ccc(C)cc2[nH]c1=O	.	-4	99	8	95	i	0.96
54	O=C(CN(Cc1ccco1)C(=O)CNS(=O)(=O)c1ccc(Cl)cc1)NC1CCCCC1	0.8	0	99	.	.	i	0.83
55	COc1cc(/C=C(\C#N)C(=O)Nc2cc(C(F)(F)F)ccc2Cl)ccc1OCC(=O)Nc1cccc(C(F)(F)F)c1	-0.6	2	101	0	100	i	0.83
56	COc1ccc(C2C(C(N)=O)=C(C)Nc3ncnn32)cc1 (configuration not stated)	-2.1	0	103	.	.	i	0.98
57	O=C(Nc1nccs1)c1cc(Cl)nc2ccccc12	.	.	100	.	.	i	0.78
58	COc1ccc2[nH]c3c(=O)n(Cc4ccc(C(=O)N5CCCCCC5)cc4)c(=S)[nH]c3c2c1	.	2	90	17	103	i	1.2
59	CC(C)CN1C(=O)/C(=C/c2c(N3CCc4ccccc4C3)nc3ccccn3c2=O)SC1=S	.	.	128	.	.	?	.
60	COC(=O)c1c(C(C)=O)cnc2ccc(Br)cc12	-1.0	-5	100	.	.	i	0.98

Next part:
entry	structure	GALR2 ag	PKD1 inh	RGS16-Gao	INS promoter inh	INS promoter inh cell count	HSV replic up	HSV replic up primary fold
61	CN(C)c1ccc(/C=C2\SC(=O)N(CC(O)Cn3c4ccccc4c4ccccc43)C2=O)cc1 (configuration not stated)	-1.1	5	100	.	.	?	.
62	Cc1ccc(OCCn2cc(C(=O)O)c3ccccc32)cc1	.	2	115	-57	75	i	0.98
63	CCN(CC)Cc1cc(C(=O)O)c(C)o1	.	-7	103	12	108	i	0.98
64	CC(C)Cn1nc(NC(=O)c2cccs2)c2cc3ccccc3nc21	.	.	104	.	.	i	0.87
65	CC1=C(C(=O)OC2CCCCCCC2)C(c2ccc(O)cc2)NC(=O)N1 (configuration not stated)	-0.6	-8	.	.	.	i	0.72
66	CC12CCC(C(=Nc3ccc(N=C4C(=O)C5(C)CCC4C5(C)C)cc3)C1=O)C2(C)C	.	.	97	.	.	i	0.99
67	OCCN(Cc1ccccc1)Cc1nc(CC2CC2)no1	.	2	100	.	.	i	1.2
68	CCO[C@H]1OC(C(N)=O)=C[C@@H](C)[C@@H]1CCCO	.	1	100	.	.	i	0.98
69	O=C(CCc1nnc(Cc2cccc(C(F)(F)F)c2)o1)NCC(F)(F)F	.	-4	104	.	.	i	0.9
70	Cc1nc(SCC(=O)c2cccs2)c2oc3ccccc3c2n1	3.3	-6	105	0	96	i	0.89
71	O=C(CSc1nnc(-c2cccnc2)n1Cc1ccco1)c1ccccc1	-2.1	4	101	69	140	.	.
72	CCOC(=O)C1CCCN(C(=O)CS(=O)(=O)Cc2ccccc2)C1 (configuration not stated)	-2.0	-2	99	-362	51	.	.
73	CC(C)(Oc1ccc(Cl)cc1)C(=O)NCc1ccc(S(N)(=O)=O)cc1	.	2	100	.	.	i	0.98
74	CC(=O)c1sc(NC(=O)c2ccccc2C)nc1C	.	0	97	14	100	i	0.74
75	CCn1c(SCc2nc3ccccc3[nH]2)nnc1-c1ccncc1	-1.6	-1	105	-66	126	i	1.1
76	CCc1cc(OCCN2C(=O)NC(C)(C)C2=O)ccc1Cl	-2.3	-2	108	0	97	i	0.94
77	O=C(Nc1ccc(Cl)c(Cl)c1)OCCNC(=O)c1cccc(Cl)c1	-3.0	2	107	-64	146	i	0.88
78	NC(=O)C1=C[C@@H](c2ccc(Br)cc2)C[C@@H](OCc2ccc(CO)cc2)O1	.	-8	97	.	.	i	0.81
79	COCCCNC(=S)NNC(=O)c1ccccc1Br	.	-8	100	.	.	i	0.94
80	COc1ccc(C(O)P(=O)(OCCC(C)C)c2ccc(N(C)C)cc2)cc1OC (configuration not stated)	.	.	105	.	.	i	0.94
81	O=C(NC1CCCCC1)c1sc(=S)n2c1[nH]c(=O)c1ccccc12	-1.2	6	91	.	.	i	0.88
82	Cc1ccc(C)c(N(CC(=O)NCCC2=CCCCC2)S(C)(=O)=O)c1	0.0	6	104	23	69	i	0.83
83	CCOC(=O)C1(CCc2ccccc2)CCN(Cc2ccc(OC)cc2)CC1	.	-1	99	.	.	i	0.86
84	Cc1ccc(C(=O)Nc2ccc(Cl)cc2C(F)(F)F)c(Cl)c1	0.2	5	101	.	.	i	1.1
85	CCSc1nc(C2CC2)cc(-c2ccco2)c1C#N	-2.1	-6	100	64	144	i	1
86	CSc1nnc(SCC#N)s1	.	.	102	.	.	i	0.79
87	COc1ccc2c(c1)Sc1ccccc1N2CCN(C)C	-1.4	-3	118	-11	50	i	0.96
88	CCSC(C)CC1C/C(=N/O)c2c(CC)noc2C1 (configuration not stated)	0.2	-9	110	-27	106	i	0.87
89	COc1ccc(C)cc1NCc1cccc(OC)c1OC	-3.1	-12	105	3	70	i	0.93
90	O=C(O)CC(SCC(=O)NC1CCCc2ccccc21)C(=O)O (configuration not stated)	.	.	100	.	.	i	1

3 entries from above, arranged by length of the SMILES, ascending.
entry	structure	GALR2 ag	PKD1 inh	RGS16-Gao	INS promoter inh	INS promoter inh cell count	HSV replic up	HSV replic up primary fold
76	CCc1cc(OCCN2C(=O)NC(C)(C)C2=O)ccc1Cl	-2.3	-2	108	0	97	i	0.94
90	O=C(O)CC(SCC(=O)NC1CCCc2ccccc21)C(=O)O (configuration not stated)	.	.	100	.	.	i	1
68	CCO[C@H]1OC(C(N)=O)=C[C@@H](C)[C@@H]1CCCO	.	1	100	.	.	i	0.98
